RecA splice inh: blocks M. tuberculosis RecA intein splicing; inhibition, %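 (about 9 µM by stock and volumes)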; AID 2221; cell-free RecA intein splicing, fluorescence; 290,000 compounds, 0.75% hits; P9WHJ3; in the data active = inhibition above about 30%; inconclusive = no clear call, values can overlap the other calls;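 note: 0% = vehicle wells and 100% = reference inhibitor control wells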
Target sequence (P9WHJ3 whole entry, looked up, canonical isoform): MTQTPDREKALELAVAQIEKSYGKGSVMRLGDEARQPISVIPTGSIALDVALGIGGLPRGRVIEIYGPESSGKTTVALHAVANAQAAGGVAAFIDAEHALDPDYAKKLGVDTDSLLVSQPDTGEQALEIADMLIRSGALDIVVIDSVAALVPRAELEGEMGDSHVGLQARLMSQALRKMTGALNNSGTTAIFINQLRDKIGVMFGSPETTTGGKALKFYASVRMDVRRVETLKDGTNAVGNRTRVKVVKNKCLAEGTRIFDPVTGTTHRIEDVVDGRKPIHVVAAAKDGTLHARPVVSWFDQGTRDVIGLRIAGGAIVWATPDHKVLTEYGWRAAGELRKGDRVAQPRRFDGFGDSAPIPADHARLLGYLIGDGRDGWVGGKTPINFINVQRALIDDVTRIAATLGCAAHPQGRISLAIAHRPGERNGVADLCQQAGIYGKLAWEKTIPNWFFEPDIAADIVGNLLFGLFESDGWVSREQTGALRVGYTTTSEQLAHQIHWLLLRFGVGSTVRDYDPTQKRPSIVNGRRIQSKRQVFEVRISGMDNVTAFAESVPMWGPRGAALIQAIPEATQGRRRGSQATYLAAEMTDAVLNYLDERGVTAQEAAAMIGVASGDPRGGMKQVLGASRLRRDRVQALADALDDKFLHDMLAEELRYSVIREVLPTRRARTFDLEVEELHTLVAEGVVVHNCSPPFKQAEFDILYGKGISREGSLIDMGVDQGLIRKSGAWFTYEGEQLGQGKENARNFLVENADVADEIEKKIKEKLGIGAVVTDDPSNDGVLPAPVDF
YopH PTP inh: YopH (Yersinia) phosphatase inhibition; 140,000 compounds, 0.16% hits; fluorescence Ex485/Em525; inhibition, %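 (about 10 µM by stock and volumes)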;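 active = inhibition of 50% or more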;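 note: controls were vehicle for no effect and minimum signal wells for full effect; inactives centre near -20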
Mtb growth: M. tuberculosis H37Rv growth inhibitors, H37Rv strain (AID 1626); M. tuberculosis H37Rv growth inhibition; higher % means a stronger effect; inhibition, % at 10 µM; hits with a dose series show IC50 in µM; 220,000 compounds, 0.95% hits;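 active = confirmed in a dose series; inconclusive = inhibition above 80% but not taken into the dose series; inactive = below 80% or under 30% at every dose of the series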;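 note: bacteria incubated seven days before Alamar blue readout; 0% = bacteria only wells and 100% = bacteria with antibiotic wells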
Mtb bLac sens: beta-lactam sensitization of Mtb H37Rv; M. tuberculosis H37Rv growth with meropenem, percent inhibition; hits of this screen are not shown here; inhibition, % at 25 µM; 330,000 compounds, 0.27% hits;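 active = about 74% or more and at least 40 points above the plate without the antibiotic, then above 30% in a dose series; inconclusive = first-round hits that could not be retested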;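 note: growth measured after seven days incubation then overnight dye step; 0% = bacteria only wells and 100% = bacteria with antibiotic; twin plates without the antibiotic show which effects depend on it; some results filed as inactive read as strong as hits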
Arbovirus anti: blocks arbovirus infection; AID 1251; arbovirus infection cell-based antiviral screen; 200,000 compounds, 0.37% hits; inhibition, % at 10 µM;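 active = inhibition from about 30%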;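 note: bluetongue infection of BSR cells; cell survival read as ATP light after 72 h; 0% = infected wells without compound and 100% = uninfected wells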
Arbovirus anti repeat: further read-out of Arbovirus anti, marked with its call; inhibition, %; measured here: 10K subset replicate screen; many hits read low in the repeat;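 first of two repeat runs on a subset; 0% = infected and 100% = uninfected wells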
The depositor's hits bear a star; ? = inconclusive; · = no result given.

The opening four entries as a preview:
SMILES	RecA splice inh	YopH PTP inh	Mtb growth	Mtb bLac sens	Arbovirus anti	others
Cc1ccc(OCC(=O)Nc2ccc(N(C)C)cc2)cc1	0.2	-29	-1%	-14	-26
Cc1cc(C)cc(OCCn2ccnc2)c1	-0.1	·	·	7	·
O=C(Oc1ccc(-c2nnco2)cc1)c1ccco1	47*	·	·	1	·
COc1ccc(/C=C/C(=O)NCCc2ccc(S(N)(=O)=O)cc2)cc1	0.4	-7	0%	5	3

The list itself, repeating the preview:
SMILES	RecA splice inh	YopH PTP inh	Mtb growth	Mtb bLac sens	Arbovirus anti	others
Cc1ccc(OCC(=O)Nc2ccc(N(C)C)cc2)cc1	0.2	-29	-1%	-14	-26
Cc1cc(C)cc(OCCn2ccnc2)c1	-0.1	·	·	7	·
O=C(Oc1ccc(-c2nnco2)cc1)c1ccco1	47*	·	·	1	·
COc1ccc(/C=C/C(=O)NCCc2ccc(S(N)(=O)=O)cc2)cc1	0.4	-7	0%	5	3
COC(=O)c1ccc(C23CC4(C2)[C@H](CN(C)[C@@H]4c2ccccc2)C3c2ccc(C(F)(F)F)cc2)cc1 (some centres undefined)	17	·	17%	94	·
CCOC(=O)N1CCN(C(=O)CC(C)S(=O)(=O)c2cc3c(cc2C)NC(=O)CO3)CC1 (centres undefined)	1.2	·	·	-1	·
O=C(Nc1ccc(N2CCOCC2)nc1)c1ccc(C(F)(F)F)cc1	-4.3	·	2%	-8	-3
COc1ccc(-n2c(SCC(=O)NNC(=O)c3ccc(C)cc3)nnc2-c2ccncc2)cc1	-2.1	18	-4%	-3	-1
N#Cc1c(C(F)(F)F)cc(-c2ccccc2)nc1SCC(=O)N1CCOCC1	1.6	2	-11%	0	7
Nc1nc(NCC2CCCO2)nc(NCC2CCCO2)c1[N+](=O)[O-] (centres undefined)	-3.5	-6	-1%	-5	2

Filtered by structure: those above with four or more nitrogen atoms.
SMILES	RecA splice inh	YopH PTP inh	Mtb growth	Mtb bLac sens	Arbovirus anti	others
COc1ccc(-n2c(SCC(=O)NNC(=O)c3ccc(C)cc3)nnc2-c2ccncc2)cc1	-2.1	18	-4%	-3	-1
Nc1nc(NCC2CCCO2)nc(NCC2CCCO2)c1[N+](=O)[O-] (centres undefined)	-3.5	-6	-1%	-5	2

Carrying on.
SMILES	RecA splice inh	YopH PTP inh	Mtb growth	Mtb bLac sens	Arbovirus anti	others
CCC(=O)Nc1sccc1C(=O)OC	0.1	-11	-1%	-8	3
Brc1ccc(CSc2nnc(-c3cnccn3)n2Cc2ccco2)cc1	4.1	-22	·	-1	-8
CCN(C(=O)CSc1nc(-c2ccccc2)c(-c2ccccc2)[nH]1)C1CCS(=O)(=O)C1 (centres undefined)	-5.2	-4	0%	-5	-11
CCc1ccc(NC(=O)CN(c2cccc(C)c2)S(C)(=O)=O)cc1	-0.9	-10	-1%	-2	3
CC(Oc1ccc(-c2ccccc2)cc1)C(=O)N1CCOCC1 (centres undefined)	-0.4	-28	1%	-3	-6
ONc1cccnc1-n1nc(C(F)(F)F)cc1C(F)(F)F	82*	·	0%	2	6
Cc1cccc(C)c1NC(=O)CN(C)CC(=O)Nc1ccc(F)c(Cl)c1	1.8	·	-3%	-2	8
Cn1cccc1-c1nc2ccccc2n1C	1.9	·	·	-2	-5
COC(=O)[C@H](C)NC(=O)Nc1ccc(OC)cc1OC	-1.2	-35	2%	2	0
CCOC(=O)c1[nH]c(C)c(C(=O)NC(C)CC)c1C (centres undefined)	-0.4	-26	-5%	-3	1	Arbovirus anti repeat=-3
COC(=O)c1cc(NC(=O)c2ccc([N+](=O)[O-])cc2)c(=O)oc1C	-2.7	·	-10%	-3	1
Cc1cccc(Cn2cnc3c(nnn3Cc3ccc(F)cc3)c2=O)c1	0.7	-30	9%	-11	7
CN1CCN(C(=O)CC23CC4CC(CC(C4)C2)C3)CC1	-4.5	0	3%	-9	-2
CNC(=O)/C(C#N)=C/c1cn(CC(=O)NCc2ccco2)c2ccccc12	-8.1	·	0%	-3	1
CCC1(CC)NC(=O)NC1=O	-0.4	-26	2%	3	7
COc1ccc(C2CC(c3ccccc3)=NN2C(=O)COC(=O)c2ccc(Cl)nc2)cc1 (centres undefined)	0.2	-26	3%	-4	-2
CSc1ncc(/C=C2/C(=O)NC(=O)N(C3CCCCC3)C2=O)cn1	4.0	-13	2%	-5	7
Nc1ccc(/C=C/C(=O)c2ccco2)cc1	-2.5	-26	78%	82	-4
COc1cccc(/C=N/NC(=S)Nc2cccc(C(=O)O)c2)c1O	1.1	·	2%	-1	-10
CCOC(=O)c1c(C)[nH]c(C(=O)COC(=O)C(C)Oc2ccc(Cl)cc2Cl)c1C (centres undefined)	-1.8	-22	-3%	3	-1
CCc1cc(=O)oc2cc(OC(C)C(=O)NCC3CCC(C(=O)O)CC3)c(Cl)cc12 (centres undefined)	16	·	·	1	·
CC1(c2ccc3ccccc3c2)NC(=O)N(CC(=O)N2CCN(c3ccccc3O)CC2)C1=O (centres undefined)	0.1	·	·	6	·
CCOC(=O)Cn1cnc2c(nnn2Cc2ccc(Cl)cc2)c1=O	-0.8	-38	-4%	-3	2
COc1ccc(S(=O)(=O)N2c3ccccc3OCC2c2ccccc2)cc1 (centres undefined)	4.7	-41	-3%	-7	-27
Cc1ccc(C)c(COc2coc(CN3CCN(C(=O)c4ccco4)CC3)cc2=O)c1	-2.0	·	·	3	·
CCCOC(=O)CSC1=C(C#N)C(c2ccccc2OCC)C(C#N)C(=O)N1 (centres undefined)	2.0	-27	-4%	27	-2
CCN(CC)CCNC(=O)c1ccc(Cl)c(S(=O)(=O)Nc2ccccc2OC)c1	-0.7	-8	0%	4	8
Cc1nc(C)c(C(=O)N(c2ccccc2F)C(C(=O)NCC2CCCO2)c2ccccc2)s1 (centres undefined)	2.6	·	·	-5	·
O=S(=O)(c1ccc(NCc2ccc(F)cc2)nc1)N1CCCC1	2.1	·	0%	-1	6
O=C1CCCc2c1cc(C(=O)NCCCN1CCOCC1)c(=O)n2-c1ccc(Cl)cc1	1.6	-4	0%	-2	13	Arbovirus anti repeat=4

5 records picked at random from the list so far, as already listed:
SMILES	RecA splice inh	YopH PTP inh	Mtb growth	Mtb bLac sens	Arbovirus anti	others
CCCOC(=O)CSC1=C(C#N)C(c2ccccc2OCC)C(C#N)C(=O)N1 (centres undefined)	2.0	-27	-4%	27	-2
Cc1ccc(C)c(COc2coc(CN3CCN(C(=O)c4ccco4)CC3)cc2=O)c1	-2.0	·	·	3	·
Cc1nc(C)c(C(=O)N(c2ccccc2F)C(C(=O)NCC2CCCO2)c2ccccc2)s1 (centres undefined)	2.6	·	·	-5	·
CCOC(=O)Cn1cnc2c(nnn2Cc2ccc(Cl)cc2)c1=O	-0.8	-38	-4%	-3	2
COc1ccc(S(=O)(=O)N2c3ccccc3OCC2c2ccccc2)cc1 (centres undefined)	4.7	-41	-3%	-7	-27

(listing goes on)
SMILES	RecA splice inh	YopH PTP inh	Mtb growth	Mtb bLac sens	Arbovirus anti	others
C/C(=C\c1ccccc1F)C(=O)c1c(C)cc(C)[nH]c1=O	0.6	·	·	3	·
Cc1cccc2sc(NNC(=O)C3COc4ccccc4O3)nc12 (centres undefined)	-2.2	-20	?	53	5
O=C(CSc1ncc(-c2ccccc2)nn1)NCc1ccco1	2.8	-69	-1%	21	11
CCOC(=O)C1CCCN(c2c(NCCc3ccccc3)c(=O)c2=O)C1 (centres undefined)	0.2	·	5%	-8	·
Cn1c(=O)c2c(ncn2CC(O)CNc2ccc(F)cc2)n(C)c1=O (centres undefined)	·	·	0%	13	·
CCOC(=O)C(Cc1c[nH]c2ccccc12)NC(=O)c1ccccc1Br (centres undefined)	0.9	·	·	-4	·
Cc1c(Cl)cccc1NC(=O)CNc1cccc(S(=O)(=O)N(C)C)c1	1.5	-46	4%	-3	5
CN(Cc1ccccc1)C(=O)COC(=O)c1cc(NS(=O)(=O)c2cccs2)ccc1O	-3.5	·	6%	-6	11
NC(=S)NCc1cccnc1	-0.7	·	-3%	-7	-3
COc1ccc(CNC(=O)C(=O)NCC2OCCN2S(=O)(=O)c2cccs2)cc1 (centres undefined)	-0.1	-20	53%	-3	-3
Cn1c(SCC(=O)Nc2ccccc2C(F)(F)F)nc2c(c1=O)SCC2	1.6	·	·	7	·
NC(=O)Cn1cc(C(=O)c2ccccc2)c2ccccc21	-0.5	·	·	-3	·
S=C1NCCNC(=S)NCCOCCOCCN1	-1.3	·	5%	3	-1
Cn1c(=O)c2c(O)c(Cc3ccccc3)c(=O)n(C)c2n(C)c1=O	-3.6	·	·	-6	·
CCOC(=O)N1CCN(C(=O)c2ccc(N(Cc3ccc(Cl)cc3)S(C)(=O)=O)cc2)CC1	-6.4	·	·	-5	·
Nc1cc(=O)[nH]c(N2CCN(c3ccccc3)CC2)n1	1.3	·	1%	0	2
COc1ccc(S(=O)(=O)Nc2ccc(Cc3ccncc3)cc2)cc1C	6.5	·	·	-4	·
Cc1ccc(CNC(=O)Cc2ccc(-n3c(=O)[nH]c4ccsc4c3=O)cc2)cc1	5.0	-7	3%	3	-6
Cc1cccc2sc(NC(=O)CN(C)S(=O)(=O)c3cccs3)nc12	3.6	-15	4%	-2	-2
Cc1ccccc1C(=O)N/N=C1/SCC(=O)N1Cc1ccccc1	·	·	1%	7	4
Cc1ccc(S(=O)(=O)N2CCCCC2)cc1C(=O)c1nccn1C	0.6	6	-1%	-6	3
O=[N+]([O-])c1ccc(N/N=C\c2cccnc2)nc1	1.3	·	-10%	1	2
Cc1ccnc(NS(=O)(=O)c2ccc(NC(=O)COc3ccccc3)cc2)n1	-0.9	·	-5%	0	18
c1cc(-c2nnc3n2CCC3)[nH]n1	0.3	-26	0%	6	0	Arbovirus anti repeat=2
COc1ccccc1NC(=O)C/C(C)=N/NC(=O)C12CC3CC(CC(C3)C1)C2	2.7	·	29%	1	0
O=C(NCc1ccccc1Cl)c1nnc(CS(=O)(=O)c2ccccc2)o1	0.4	·	·	-8	·
CSCC[C@H](NC(=O)[C@@H]1Cc2c([nH]c3ccccc23)C2c3ccccc3C(=O)N21)C(=O)NCC1CCCO1 (some centres undefined)	-2.2	·	·	1	·
CCCCC[n+]1cccc2c3ccccc3ccc21	-1.0	·	12%	9	-1
CN1C(=O)N(C)C(c2cccc([N+](=O)[O-])c2)C2=C1CCCC2=O (centres undefined)	-2.5	·	·	-3	·
COc1ccc(N2CCN(C(=O)Cn3c(=O)[nH]c4ccsc4c3=O)CC2)cc1	-3.2	-37	-9%	0	9	Arbovirus anti repeat=-1
COc1ccc(NC(=O)C2CCCN(S(=O)(=O)c3cccc4nonc34)C2)cc1 (centres undefined)	2.3	-23	-9%	-2	-10
CCCCN1C(=O)/C(=C/C=C2/C=Cc3ccccc3N2CC)SC1=S	-1.6	·	11%	32	-17
CCOC(=O)COn1c(=O)c(C)[n+]([O-])c2ccccc21	-0.2	5	-6%	6	-2
COC(=O)c1ccc(COC(=O)CCc2nc(-c3ccccc3)c(-c3ccccc3)o2)cc1	-1.0	-18	39%	97	-3
Oc1ccc(C(=S)N2CCCC2)cc1	-4.4	·	·	0	·
COc1cc(/C=N/NC(=O)C(C)Nc2n[nH]c(=O)[nH]c2=O)cc(OC)c1O (centres undefined)	-4.3	-23	-11%	1	-4
O=c1nc(N2CCOCC2)ccn1Cc1ccc(Br)cc1	-0.7	-15	-6%	-2	2
C=CCOc1ccc(C2/C(=C(/O)c3ccc(OC)cc3)C(=O)C(=O)N2CCN2CCNCC2)cc1 (centres undefined)	1.9	·	·	-3	·
CC(Sc1n[nH]c(N)n1)C(=O)Nc1cccc(S(=O)(=O)N2CCOCC2)c1 (centres undefined)	0.6	·	1%	1	0
COc1ccc(NC(=O)CC2(CC(=O)O)CCCC2)cn1	·	·	5%	-5	2
CC1CC(C)CN(C(=O)c2cc3ccccc3o2)C1 (centres undefined)	2.7	·	·	43	·
COc1ccccc1NC(=S)N(Cc1ccco1)Cc1cc2cc(C)c(C)cc2[nH]c1=O	-9.0	9	7%	-2	-13
CCCCC(C(=O)NC1CCCC1)N(C(=O)c1snc(C(N)=O)c1N)c1ccc(OCC)cc1 (centres undefined)	-0.5	·	·	0	·
c1ccc(-c2nccc(-c3ccc(-n4cnc5ccccc54)cc3)n2)nc1	2.2	-31	?	90	-2

Two consecutive records out of the list so far:
SMILES	RecA splice inh	YopH PTP inh	Mtb growth	Mtb bLac sens	Arbovirus anti	others
CCCCC(C(=O)NC1CCCC1)N(C(=O)c1snc(C(N)=O)c1N)c1ccc(OCC)cc1 (centres undefined)	-0.5	·	·	0	·
c1ccc(-c2nccc(-c3ccc(-n4cnc5ccccc54)cc3)n2)nc1	2.2	-31	?	90	-2

Assay outcomes as filed in PubChem.

The list is partial. The share of hits here may be higher or lower than overall.
